VACV Venus inh – inhibitors of vaccinia virus (Venus reporter) | 0.46% of 330,000 active | AID 720580 | Vaccinia virus Venus reporter expression, fluorescence | Potency, µM (top dose mostly 36.5 µM), for the others: at the highest dose activity change, negative = inhibition, usual class: inhibitors; active means well fitted inhibition curve with a large enough effect; inconclusive means small, poorly fitted or top-dose-only effect; inactive means no such curve, though single readings can be large or run the other way; tested in A549 cells; also: nearly all actives have a fitted effect of over 30% in size; inactives centre near -10
VACV mCherry inh – vaccinia inhibition (mCherry reporter); Vaccinia virus mCherry reporter infection, fluorescence; about a quarter of the inactives have no number; Potency, µM (series often up to 36.5 µM), inactives show top-dose activity change, negative = inhibition, most hits filed as inhibitors; 0.63% of 310,000 active; AID 720579; active = well fitted inhibition curve with a large enough effect; inconclusive = small, poorly fitted or top-dose-only effect; inactive = no such curve, though single readings can be large or run the other way; tested in A549 cells; also: nearly all actives have a fitted effect of over 35% in size; inactives centre near -10
* hit, by the source's call. % is scaled to controls: 0 for no effect and ±100 for the full control effect; potency is read from the fitted curve at half-maximal effect.

Results for COC(=O)c1ccc(CSc2nc3sc(C(=O)O)c(C)c3c(=O)[nH]2)cc1 ?
VACV Venus inh: -8%; VACV mCherry inh: -12%

Results for O=C(NC(=S)Nc1ccc2[nH]ncc2c1)c1ccccc1 ?
VACV Venus inh: -13%; VACV mCherry inh: -13%

How did COc1ccc(-c2cc(=O)c3c(OC)c(OC)c(OC)cc3o2)cc1 do in these assays?
VACV Venus inh: -4%; VACV mCherry inh: -5%

How did CCOc1ccc(CNC(=O)CCc2c(C)nn(-c3ccc(N4CCCCC4)nn3)c2C)cc1 do in these assays?
VACV Venus inh: -9%; VACV mCherry inh: -8%

How did CCCc1nc2nc(C)c(NS(=O)(=O)c3ccc(C(C)(C)C)cc3)c(=O)n2[nH]1 do in these assays?
VACV Venus inh: -3%; VACV mCherry inh: 5%

Results for COc1ccc(Cl)cc1NC(=O)NCCN1CCCCC1 ?
VACV Venus inh: 3%; VACV mCherry inh: inactive

How did CCCCOC(=O)n1c(=O)oc2ccc(S(=O)(=O)N3CCCCC3)cc21 do in these assays?
VACV Venus inh: -6%; VACV mCherry inh: 20%

What do the screens show for `COc1ccc(-c2noc(CCC(=O)N3CCN(c4cc(C)ccc4C)CC3)n2)cc1`?
VACV Venus inh: -5%

What do the screens show for `ClC1(Cl)CC1CSc1ncn[nH]1` (configuration not stated)?
VACV Venus inh: 3%; VACV mCherry inh: -3%

How did O=C(NC(=S)Nc1cccc(NC(=O)c2ccccc2)c1)c1cccc([N+](=O)[O-])c1 do in these assays?
VACV Venus inh: -12%; VACV mCherry inh: -1%

Of the compounds above, these contain a Cl atom.
Results for COc1ccc(Cl)cc1NC(=O)NCCN1CCCCC1 ?
VACV Venus inh: 3%; VACV mCherry inh: inactive

What do the screens show for `ClC1(Cl)CC1CSc1ncn[nH]1` (configuration not stated)?
VACV Venus inh: 3%; VACV mCherry inh: -3%

More structures follow.
How did O=C(NCc1ccccc1Cl)C(=O)NCC1CCCN1S(=O)(=O)c1cccs1 (configuration not stated) do in these assays?
VACV Venus inh: -6%; VACV mCherry inh: -11%

Results for COc1ccc(N2CCN(c3ncnc4c3cnn4-c3ccc(C)cc3C)CC2)cc1 ?
VACV Venus inh: -13%; VACV mCherry inh: -15%

What do the screens show for `CN(C)S(=O)(=O)c1cccc(NC(=O)CNc2cccc(S(=O)(=O)N3CCCCC3)c2)c1`?
VACV Venus inh: inconclusive; VACV mCherry inh: inconclusive

What do the screens show for `Cc1ccc(C(=O)n2nc(-c3ccco3)nc2NCc2cccs2)cc1`?
VACV Venus inh: -8%; VACV mCherry inh: -16%

What do the screens show for `COc1ccc(C(=O)Nc2ccccc2-c2nnn(CC(N)=O)n2)cc1`?
VACV Venus inh: inconclusive; VACV mCherry inh: -1%

How did O=C(COCc1ccccc1)N[C@@H]1c2ccccc2CC[C@H]1OCc1ccccc1 do in these assays?
VACV Venus inh: -10%; VACV mCherry inh: inactive

How did S=C(NCc1ccc2c(c1)OCO2)NC1CC1 do in these assays?
VACV Venus inh: 2%; VACV mCherry inh: -9%

Results for O=C(CN1C(=O)C2C3C=CC(C3)C2C1=O)NCCc1ccccc1 (configuration not stated) ?
VACV Venus inh: -4%; VACV mCherry inh: -10%

Results for Cc1ccc(S(=O)(=O)Nc2ccccc2C(=O)Nc2ccc(S(=O)(=O)Nc3nccc(C)n3)cc2)cc1 ?
VACV Venus inh: -4%; VACV mCherry inh: -8%

Results for COc1ccc(N2CCN(C(=O)CNC(=O)Cc3ccc(Cl)cc3)CC2)cc1 ?
VACV Venus inh: inconclusive; VACV mCherry inh: -21%

What do the screens show for `CC(=O)N1CCOCC1c1cc(C(=O)Nc2ccccc2)no1` (configuration not stated)?
VACV Venus inh: -1%; VACV mCherry inh: -9%

Results for Cc1ccc(S(=O)(=O)N2CCC(C(=O)Nc3ccccc3N3CCCCC3)CC2)cc1 ?
VACV Venus inh: -1%; VACV mCherry inh: -18%

How did CCC(C)(C)NC(=O)CC(c1ccc(OC)cc1)n1cccc1 (configuration not stated) do in these assays?
VACV Venus inh: -5%; VACV mCherry inh: inactive

How did COc1ccc(NC(=O)CCNC(=O)Cn2cnc3sc4c(c3c2=O)CCCC4)c(OC)c1 do in these assays?
VACV Venus inh: -30%; VACV mCherry inh: -27%

Results for Cc1[nH]c2ccccc2c1C(c1c[nH]c2ccccc12)c1c(C)[nH]c2ccccc12 ?
VACV Venus inh: 11%; VACV mCherry inh: 6%

Results for CCCC/C=C/C(NC(=O)CCc1ccccc1)c1ccccc1 (configuration not stated) ?
VACV Venus inh: -11%; VACV mCherry inh: -16%

How did C=CCOn1c(=O)c(-c2cc3ccccc3o2)[n+]([O-])c2ccccc21 do in these assays?
VACV Venus inh: -16%; VACV mCherry inh: -12%

What do the screens show for `C[C@@H](NC(=O)[C@@H]1Cc2ccccc2CN1)C(=O)NCc1ccco1`?
VACV Venus inh: -8%; VACV mCherry inh: -6%

How did O=C(COC(=O)c1ccc(S(=O)(=O)N2CCOCC2)cc1)NCc1ccco1 do in these assays?
VACV Venus inh: -13%; VACV mCherry inh: -13%

What do the screens show for `CN(C)/C(=N\S(=O)(=O)c1ccc(Cl)cc1)c1ccc(F)cc1`?
VACV Venus inh: -6%; VACV mCherry inh: inactive

Two entries drawn at random from those above:
How did CCCCOC(=O)n1c(=O)oc2ccc(S(=O)(=O)N3CCCCC3)cc21 do in these assays?
VACV Venus inh: -6%; VACV mCherry inh: 20%

How did COc1ccc(NC(=O)CCNC(=O)Cn2cnc3sc4c(c3c2=O)CCCC4)c(OC)c1 do in these assays?
VACV Venus inh: -30%; VACV mCherry inh: -27%

Additional results follow:
Results for Cc1cccc(Nc2cc(=O)[nH]c(=O)[nH]2)c1C ?
VACV Venus inh: -3%; VACV mCherry inh: inactive

How did COc1ncnc2c1ncn2CCCN1CCN(c2ncccn2)CC1 do in these assays?
VACV Venus inh: -4%; VACV mCherry inh: inactive

What do the screens show for `CCCSc1nc2sc3c(c2c(=O)n1-c1ccc(C)c(Cl)c1)CCN(C(C)=O)C3`?
VACV Venus inh: -16%; VACV mCherry inh: -14%

How did C[C@H]1CN([C@@H](C)CO)S(=O)(=O)c2ccc(-c3ccc(C#N)cc3)cc2O[C@H]1CN(C)C(=O)CN(C)C do in these assays?
VACV Venus inh: -4%; VACV mCherry inh: inactive

How did Nc1c(NCCC2=CCCCC2)c(=O)[nH]c(=O)n1Cc1ccccc1 do in these assays?
VACV Venus inh: -10%; VACV mCherry inh: -9%

Results for O=C(CC1CCCC1)NNC(=O)c1ccccc1O ?
VACV Venus inh: -3%; VACV mCherry inh: -15%

Results for COC(=O)c1ccc2cc(F)cc(C)c2n1 ?
VACV Venus inh: 7%; VACV mCherry inh: 2%

How did CC(C)(C)c1nc2scc(-c3cccs3)c2c(=O)o1 do in these assays?
VACV Venus inh: -13%

How did COc1ccccc1OCC(=O)N1CCN(C(=O)c2ccco2)CC1 do in these assays?
VACV Venus inh: -9%; VACV mCherry inh: -14%

Results for COc1cccc(CNC(=O)CCC(=O)N2CC3CCCN3c3ccccc32)c1 (configuration not stated) ?
VACV Venus inh: -7%; VACV mCherry inh: -6%

Results for Cc1ccc(C(=O)N/C(=C\c2ccccc2F)c2nc(=S)[nH][nH]2)cc1 ?
VACV Venus inh: 1%; VACV mCherry inh: inconclusive

What do the screens show for `Cc1cc(C)cc(C(=O)NC(=S)Nc2cccnc2)c1`?
VACV Venus inh: -9%; VACV mCherry inh: -18%

Results for O=C(O)c1cccc(NC(=O)c2cc(NC(=O)c3ccccc3)cc(NC(=O)c3ccccc3)c2)c1 ?
VACV Venus inh: -5%; VACV mCherry inh: -28%

Results for NS(=O)(=O)c1ccc(S(=O)(=O)N2CCN(c3nc(-c4ccccc4)nc4ccccc34)CC2)cc1 ?
VACV Venus inh: inconclusive; VACV mCherry inh: -19%

What do the screens show for `COc1ccc(C(=O)OCC(=O)c2ccc(S(=O)(=O)N3CCCCC3)cc2)c(OC)c1`?
VACV Venus inh: -10%; VACV mCherry inh: -19%

How did COc1cc(/C=N/N2C(=O)c3ccccc3NC2(C)c2cccc([N+](=O)[O-])c2)cc(Br)c1O (configuration not stated) do in these assays?
VACV Venus inh: -14%

What do the screens show for `O=C(CCC1COc2ccccc2O1)NCC1COc2ccccc2O1` (configuration not stated)?
VACV Venus inh: -17%

Results for O=C(NC(c1ccc(F)cc1)c1ccc2ccccc2n1)C1CCN(Cc2ccc(Oc3ccccc3)cc2)CC1 (configuration not stated) ?
VACV Venus inh: inconclusive; VACV mCherry inh: -11%

What do the screens show for `O=C(NC1(C(F)(F)F)NC(=O)N(CCc2ccccc2)C1=O)C1CC1` (configuration not stated)?
VACV Venus inh: -11%; VACV mCherry inh: -5%

Results for Cc1csc2nc(COC(=O)c3ccc(NC(=O)C(C)Oc4ccccc4)cc3)cc(=O)n12 (configuration not stated) ?
VACV Venus inh: -17%; VACV mCherry inh: 0%

The last three entries of the section above open the next one.
Results for O=C(NC(c1ccc(F)cc1)c1ccc2ccccc2n1)C1CCN(Cc2ccc(Oc3ccccc3)cc2)CC1 (configuration not stated) ?
VACV Venus inh: inconclusive; VACV mCherry inh: -11%

What do the screens show for `O=C(NC1(C(F)(F)F)NC(=O)N(CCc2ccccc2)C1=O)C1CC1` (configuration not stated)?
VACV Venus inh: -11%; VACV mCherry inh: -5%

Results for Cc1csc2nc(COC(=O)c3ccc(NC(=O)C(C)Oc4ccccc4)cc3)cc(=O)n12 (configuration not stated) ?
VACV Venus inh: -17%; VACV mCherry inh: 0%

What do the screens show for `c1cncc(CNc2nc(-c3cccnc3)nc3ccccc23)c1`?
VACV Venus inh: -17%; VACV mCherry inh: inactive

What do the screens show for `CCN1/C(=C2\C(=O)N(c3ccccc3)N=C2C)C=Cc2cc(C)ccc21`?
VACV Venus inh: -1%; VACV mCherry inh: inactive

How did O=C(Nc1c2c(nc3ccccc13)CCCC2)c1ccccc1Br do in these assays?
VACV Venus inh: 3%; VACV mCherry inh: -8%

Results for Cc1ccsc1C(=O)N1CCC(CO)(Cc2ccccc2)CC1 ?
VACV Venus inh: -10%; VACV mCherry inh: inactive

How did CCCn1c(CNc2ccccc2O)nc2ccccc21 do in these assays?
VACV Venus inh: -12%; VACV mCherry inh: -21%

How did CC(C)OP(=O)(OC(C)C)C(NC(=O)c1ccccc1)C(N)=O (configuration not stated) do in these assays?
VACV Venus inh: 0%; VACV mCherry inh: -9%

Results for Cc1cc(C)nc(N/N=C/C2=C(N3CCOCC3)C(=C/c3ccccc3)/CC2)n1 ?
VACV Venus inh: -8%; VACV mCherry inh: inactive

Results for CCOc1ccc(Cc2noc3c2C(=O)CC(C)(C)C3)cc1OCC ?
VACV Venus inh: -12%; VACV mCherry inh: -8%

Results for Cc1noc(-c2ccc(-c3noc(-c4ccc(F)cc4)n3)cc2)n1 ?
VACV Venus inh: -5%; VACV mCherry inh: -12%

How did Cc1ccn2cc(C(=O)Nc3ccc4c(c3)OCCO4)nc2c1 do in these assays?
VACV Venus inh: -5%; VACV mCherry inh: -2%

What do the screens show for `O=C(/C=C/c1ccc(Cl)cc1)Nc1ccc(Br)cn1`?
VACV Venus inh: 10%; VACV mCherry inh: inactive

How did O=C(Nc1ccc2c(c1)OCCO2)c1cc2sccc2n1Cc1ccccc1 do in these assays?
VACV Venus inh: -20%; VACV mCherry inh: inactive

How did CC(C)CCNC(=O)C(=O)Nc1c2c(nn1-c1ccccc1)CS(=O)(=O)C2 do in these assays?
VACV Venus inh: -9%; VACV mCherry inh: -13%

Results for CCOc1nc(Nc2ccc(OC)cc2)nc(OCC)n1 ?
VACV Venus inh: -19%; VACV mCherry inh: inconclusive

Results for COC(=O)c1cc2c(n1S(=O)(=O)c1ccc(C)cc1)C(=O)C(=O)c1[nH]cc(C(=O)OCc3ccccc3)c1-2 ?
VACV Venus inh: 2.5µM*; VACV mCherry inh: 2.2µM*

Results for COc1ccc(CNC(=O)CN2C(=O)NC3(CCCCCC3)C2=O)cc1OC ?
VACV Venus inh: -7%; VACV mCherry inh: -14%

Results for Cc1ccc(NC(=O)c2ccc(NC(=O)N3CCSc4nc(C)cc(C)c43)cc2)c(Cl)c1 ?
VACV Venus inh: -4%; VACV mCherry inh: -10%

What do the screens show for `CCC1(CC)C(=O)C2=C3C1[C@H](C(=O)OC)C=C(C(=O)OC)C[C@H]3[C@H]1C(=O)N(CC(=O)OC)C(=O)[C@H]1[C@H]2C` (some centres not stated)?
VACV Venus inh: -11%; VACV mCherry inh: inactive

How did COc1cccc(NC(=O)C2(C)CCN2Cc2ccc3ccccc3c2)c1 (configuration not stated) do in these assays?
VACV Venus inh: -11%; VACV mCherry inh: -6%

Results for O=C(c1cc2c(s1)-c1ccccc1OC2)N1CCN(c2ccccc2F)CC1 ?
VACV Venus inh: -8%; VACV mCherry inh: -15%

How did CCN(CC)S(=O)(=O)c1cccc(C(=O)Nc2cc(C)cc(C)c2)c1 do in these assays?
VACV Venus inh: -16%; VACV mCherry inh: -24%

Results for COc1ccc(OC)c(CN2CCOc3ccc(CN4CCC(O)(c5cccnc5)CC4)cc3C2)c1 ?
VACV Venus inh: 4%; VACV mCherry inh: -14%

Results for COc1cccc(-c2cc(C(=O)Nc3ccncc3)c3ccccc3n2)c1 ?
VACV Venus inh: -18%; VACV mCherry inh: -12%

What do the screens show for `NC(=O)NC(c1ccccc1)c1ccccc1`?
VACV Venus inh: -7%; VACV mCherry inh: -12%

Results for O=C(NCc1ccccc1Cl)c1cnn2cccnc12 ?
VACV Venus inh: inconclusive

How did O=C(CCNC(=O)c1ccccc1Cl)NCCC1=CCCCC1 do in these assays?
VACV Venus inh: -6%; VACV mCherry inh: inactive

Source: PubChem (National Center for Advancing Translational Sciences (NCATS))
